# H5N1 CPE: antiviral screen in MDCK cells, H5N1 avian flu; cytopathic effect, luminescence, 72 h; stronger effect = higher value; no value below 0 was filed and about half of the inactive calls have no number; reference of the scale not given here; inhibition, % at 50 µM; hit rate 0.07% among 96,000; in the data active = inhibition above about 25%
# Numbers without * were called inactive; i = inactive. Not all compounds are listed; count on the stated rates, not on these rows.
SMILES,H5N1 CPE
O=C1C2CCC(C(O)C2)N1Cc1ccccc1 (stereo unspecified),i
c1ccc(-c2cnc(-c3cccnc3)o2)cc1,0.9
O=C(NCCCN1CCc2ccccc2C1)Nc1ccc(Cl)cc1,0.7
Cc1ccc(C)c(OCc2nnc(N)s2)c1,1.0
COc1ccc(Nc2oc(COc3cccc(C)c3)nc2C#N)cc1,i
CC(C(=O)N(C1CC1)C1(C(=O)Nc2ccccc2)CCCC1)N1C(=O)c2ccccc2C1=O (stereo unspecified),0.6
COc1cccc(CC(=O)n2nc(N)c3cc4ccc(OC)cc4nc32)c1,i
CC(C)(C)NC(=O)c1ccccc1-c1nc(-c2ccccc2Cl)no1,1.2
COC(=O)Cn1c(=O)c2c(nc(Br)n2Cc2ccccc2Cl)n(C)c1=O,0.6
CCC(=O)OC1(c2cccc(C)c2)CC(C)N(C)CC1C (stereo unspecified),1.3
CC(=O)Nc1ccccc1-c1nc2ccc(C(=O)N3CCN(c4cc(C)ccc4C)CC3)cc2[nH]c1=O,i
CCOc1cccc(N2C(=O)CC(N3CCC(C(N)=O)(N4CCCCC4)CC3)C2=O)c1 (stereo unspecified),i

# Quoted at random: 7 entries already listed
SMILES,H5N1 CPE
COC(=O)Cn1c(=O)c2c(nc(Br)n2Cc2ccccc2Cl)n(C)c1=O,0.6
c1ccc(-c2cnc(-c3cccnc3)o2)cc1,0.9
CC(C(=O)N(C1CC1)C1(C(=O)Nc2ccccc2)CCCC1)N1C(=O)c2ccccc2C1=O (stereo unspecified),0.6
O=C1C2CCC(C(O)C2)N1Cc1ccccc1 (stereo unspecified),i
COc1cccc(CC(=O)n2nc(N)c3cc4ccc(OC)cc4nc32)c1,i
COc1ccc(Nc2oc(COc3cccc(C)c3)nc2C#N)cc1,i
O=C(NCCCN1CCc2ccccc2C1)Nc1ccc(Cl)cc1,0.7

# Continued:
SMILES,H5N1 CPE
O=C(NCCCN1CCN(c2cccc(Cl)c2)CC1)c1nc(-c2ccncc2)no1,3.4
COc1cc(/C=N/Nc2nc3ccccc3o2)cc(OC)c1O,i
O=C(O)C1CCCCC1C(=O)NCCCn1ccnc1 (stereo unspecified),i
CCOC(=O)C1CCN(c2c(N3CCCCCC3)c(=O)c2=O)CC1,i
CC(C)NC(=O)Cn1nnc(-c2cccc(NC(=O)c3ccccc3F)c2)n1,i
CCOC(=O)c1sc2ncn(CC(=O)N(CC)CC)c(=O)c2c1C,i
COc1ccc(C)cc1-n1nnnc1SCC1CCCO1 (stereo unspecified),i
CCc1ccccc1N1CCN(S(=O)(=O)c2ccc(F)c(C)c2)CC1,2.5
O=C(CSc1nc2c(c(=O)[nH]1)CCC2)Nc1cccc(Cl)c1,i
O=C(CN(c1ccc(F)cc1)S(=O)(=O)c1ccc2c(c1)OCCO2)N1CCOCC1,1.4
CC(=O)n1c2c(c3ccccc31)OC(N)=C(C#N)C2c1ccc(C(C)C)cc1 (stereo unspecified),i
Cc1cc(/C(=N/O)C(C)(C)NO)ccc1Cl,1.5

# In the list so far, two have an aryl thioether with sulfur outside any ring:
SMILES,H5N1 CPE
COc1ccc(C)cc1-n1nnnc1SCC1CCCO1 (stereo unspecified),i
O=C(CSc1nc2c(c(=O)[nH]1)CCC2)Nc1cccc(Cl)c1,i

# Continuation:
SMILES,H5N1 CPE
Cc1nc(-c2ccc(NC(=O)c3cccs3)cc2)cs1,0.6
Cc1ccc2cc(C)c3nnc(SCC(=O)Nc4nc5c(s4)CCCC5)n3c2c1,i
Cc1ccc(-n2c(C)cc(C(=O)COC(=O)c3c(C)noc3C)c2C)cc1,i
CSc1c[n+]2c(n1C)CCC2,i
O=C(O)CCc1ccc(-c2cccs2)n1CC1CCCO1 (stereo unspecified),i
CCCCOc1ccc(C(=O)OC2CC(C)N(C)CC2C)cc1 (stereo unspecified),i
Cc1ccc(N2CCN(S(=O)(=O)c3ccc(F)c(C)c3)CC2)c(C)c1,1.3
CNC(=O)c1sc(N2N=C3/C(=C/c4ccccc4)CCCC3C2c2ccccc2)nc1C (stereo unspecified),6.9
CCCC(=O)Nc1cc(OC)c(OC)cc1C(=O)O,0.3
CC1(C)Cc2nc(NCCCO)c(C#N)cc2CO1,i
CSc1snc(SCC(N)=O)c1C#N,i
C(=N\n1cnnc1)/c1ccc(OCc2cccc3ccccc23)cc1,i
N#Cc1nc(COc2ccccc2Cl)oc1NCc1cccnc1,1.4
Cc1cc(-c2cccs2)c2c(n1)sc1c(=O)[nH]c(=O)[nH]c12,16
CCSc1nnc(NC(=O)C(Cc2ccccc2)n2cccc2)s1 (stereo unspecified),0.6
N#Cc1c2n(c(=S)n(-c3ccccn3)c1=O)CCCCC2,i
Cc1c(Br)cc(C(=O)O)c(C)c1C,i
CCn1c(SCC(=O)c2cccs2)nnc1-c1cccs1,i
Cc1occc1-c1nnc(SCc2nnc(-c3ccc(Cl)cc3)o2)n1C,0.1
Cc1cc(C)nc(N/N=C/c2ccccc2)n1,0.2
CC1CCc2nn(CC(=O)NCCCN3CCCC3=O)cc2C1 (stereo unspecified),0.7
O=C(c1cccn2c(=O)c3cc(Cl)ccc3nc12)N1CCC2(CC1)OCCO2,i
Cc1cc(C)n2cc(CSc3nnnn3-c3ccccc3)nc2n1,1.5
COc1ccccc1C1C(C(=O)c2cc3ccccc3o2)=C(O)C(=O)N1CCN1CCOCC1 (stereo unspecified),2.2
O=C(Nc1ccc(F)cc1F)c1cccn1-c1ncc(C(F)(F)F)cc1Cl,i
COc1ccccc1CNC(=O)C1=C(C)C(=O)OC12CCC(C)CC2 (stereo unspecified),0.9
CCOCCCn1c(=N)c(C(=O)NCCN2CCOCC2)cc2c(=O)n3cccc(C)c3nc21,1.6
COc1cc(OC)cc(C(C(=O)NCc2ccccc2)N(Cc2ccco2)C(=O)c2ccno2)c1 (stereo unspecified),i
N#CCC1c2ccccc2CCN1C(=O)Nc1ccc(Cl)cc1 (stereo unspecified),1.6
Cc1ccc2[nH]c3c(N4CCc5ccccc5C4)ncnc3c2c1,i
COc1ccc(CNC(=O)Nc2ccc(C)cc2)cc1,0.7
O=C(CS(=O)(=O)c1cn(Cc2ccc(Cl)cc2)c2ccccc12)N1CCCC1,0.8
CCOC(=O)CNS(=O)(=O)c1ccc(S(=O)(=O)N2CCCC2)cc1,1.3
CCc1nc(-c2ccccc2O)n(-c2ccccc2)n1,i
CCN(CC)C(=O)CSc1nnc(-c2cnccn2)n1-c1ccccc1,i
CN(c1cccc(NC(=O)Nc2ccc(Cl)cc2)c1)S(C)(=O)=O,2.6
O=C(CN1CCN(c2ccccc2)CC1)N1CCc2[nH]c3ccccc3c2C1,3.3
COCCOC(=O)c1c(C)oc2ccc(NS(=O)(=O)c3ccccc3)cc12,1.1
COCCNc1cc(C)c(C#N)c2nc3ccccc3n12,2.5
CCOC(=O)c1cc(NC(=O)N(CC)CC)c(C)nc1C,i
Cn1c(CCNC(=O)c2ccco2)nc2cc(NC(=O)NC3CCCCC3)ccc21,i
N#CCCn1c(=S)[nH]c2ccccc21,0.1
CCOC(=O)c1nc(C)n(-c2ccc(Cl)cc2)n1,i
CCOc1ccc(N(CC(=O)Nc2cccc(Cl)c2)S(=O)(=O)c2c(C)noc2C)cc1,i
Cc1ccccc1Nc1nnc(SCC(=O)NCc2ccco2)s1,0.5
Cc1nn(Cc2ccc(F)cc2)c(C)c1NC(=O)c1cnn2c1NC(c1cccs1)CC2C(F)(F)F (stereo unspecified),i
Cc1cccc(N2CCN(C(=O)COc3cc(=O)n(C)c4ccccc34)CC2)c1C,3.0
CCCn1c(-c2cccnc2Cl)nc2cc(Cl)c(Cl)cc21,i

# Exported tab-delimited: 5 of the compounds above
canonical_smiles	H5N1 CPE
CCOC(=O)c1nc(C)n(-c2ccc(Cl)cc2)n1	i
CCOc1ccc(N(CC(=O)Nc2cccc(Cl)c2)S(=O)(=O)c2c(C)noc2C)cc1	i
Cc1ccccc1Nc1nnc(SCC(=O)NCc2ccco2)s1	0.5
Cc1nn(Cc2ccc(F)cc2)c(C)c1NC(=O)c1cnn2c1NC(c1cccs1)CC2C(F)(F)F (stereo unspecified)	i
Cc1cccc(N2CCN(C(=O)COc3cc(=O)n(C)c4ccccc34)CC2)c1C	3.0

# The list continues.
SMILES,H5N1 CPE
NC(=O)C1CCN(C(=O)c2ccc(-c3ccccc3)cc2)CC1,i
CN(C)C=NCCn1c(N2CCOCC2)nc2c1c(=O)n(C)c(=O)n2C,i
CCn1c(CSCc2ccc(C)cc2)nnc1SCC(=O)N1CCN(c2ccccc2)CC1,i
COc1ccc(C2NC(C(=O)O)CS2)cc1COCC(F)(F)F (stereo unspecified),i
CC1(C)CC(=O)C=C(Nc2ccc(F)cc2)C1,i
O=C(CSc1nc2c(c(=O)n1-c1ccc(Cl)cc1)SCC2)N1CCOCC1,0.4
CCC(C)(C)NC(=O)c1cc(OC)c(OC)cc1[N+](=O)[O-],0.3
CCc1nc(NCc2cccnc2)c2oc3ccccc3c2n1,2.3
Cc1ccc(S(=O)(=O)NCCN2CCOCC2)cc1,i
O=C(c1cc2ccccc2c(=O)o1)N1CCc2ccccc2C1,1.4
CN(C)/C=N/C(=S)Nc1ccc(Br)cc1F,i
CCOc1ccccc1NC(=O)C1CCN(S(=O)(=O)c2ccc(OC)c(OC)c2)CC1,i
CCSC1(SCC)N=C(N)C2(C#N)C(c3ccc(OC)c(OC)c3OC)C12C#N (stereo unspecified),0.7
O=C(O)c1ccc2c(c1)C(=O)N(c1ccc(Cl)cn1)C2=O,0.1
COc1cc(C)nc(Oc2ccc(/C=N/O)cc2)n1,0.7
CCC(C)NC(=O)c1ccc(CS(=O)(=O)c2ccc(OC)cc2)o1 (stereo unspecified),i
O=C(CSc1ccc2nnc(-c3ccncc3)n2n1)NCc1ccco1,29*
CS(=O)(=O)N(CCc1ccccc1)CC(=O)NCC1CCCO1 (stereo unspecified),i
CN(CCC#N)C(=O)c1ccc(CNS(=O)(=O)c2ccc(F)cc2)cc1,i
CCOc1cc(/C=C2/C(=O)ON=C2C)ccc1OCc1ccc(F)cc1,3.8
CN1CCN(C(=O)C2CC(=O)N(c3ccc(F)c(Cl)c3)C2)CC1 (stereo unspecified),0.2
O=C1c2ccccc2S(=O)(=O)N1Cc1cccc(S(=O)(=O)N2CCOCC2)c1,0.3
COc1ccccc1C(=O)Nc1ccc2c(c1)nc1n2CCSC1,0.6
CCCCCCCCOC(=O)C1=C(C)Nc2nnnn2C1c1cccs1 (stereo unspecified),2.0
Cc1ccc(-c2nnn(CCC(=O)Nc3ccc4c(c3)OCO4)n2)cc1,i
Cc1ccccc1C(=O)Nc1ccc(Cl)cn1,0.8
O=C(O)c1cccc(NC(=S)NC(=O)C(c2ccccc2)c2ccccc2)c1,0.0
O=C(C1CC(c2ccc(Cl)c(Cl)c2)=NO1)N1CCC2(CC1)OCCO2 (stereo unspecified),i
CCn1c(SCC(=O)NCc2ccco2)nnc1-c1cccs1,4.6
COc1ccc2[nH]c(=O)c(-c3noc(-c4ccc(F)cc4)n3)cc2c1,0.0
COc1ccc(Nc2cc(=O)n(C3CCCCC3)c(=O)[nH]2)c(OC)c1,i
Cc1ccc(S(=O)(=O)N2C(=O)CCC2C(=O)NCc2ccco2)cc1 (stereo unspecified),i
O=C(CCCc1c[nH]c2ccccc12)N1CCOCC1,0.3
Cc1ccc(C2OCC3(CO)COC(c4ccc(C)cc4)N23)cc1 (stereo unspecified),i
CCN(CC)CCOC(=O)C12CC3CC(CC(C3)C1)C2,5.4
N=C1C(c2nc(-c3ccc(Cl)cc3)cs2)=C(O)CN1CCCN1CCOCC1,1.9
Clc1ccc(OCCSc2ncccn2)c2ccccc12,i
CCOc1c(Cl)cc(C2NC(=O)NC(C)=C2C(=O)NCc2ccccc2)cc1OC (stereo unspecified),i
C=CCn1c(CSCc2ccc(C)cc2)nnc1SCC(=O)NCc1ccccc1,0.3
Cc1ccc(C2CC(c3cccs3)=NN2C(=O)c2ccc(Br)o2)cc1 (stereo unspecified),0.9
O=C(Nc1nnc(C2CC2)s1)c1cc2c(s1)CCCCCC2,0.9
CCOC(=O)C1C(=O)C=C(c2ccc(C)cc2)CC1c1ccco1 (stereo unspecified),0.7
COc1ccc(C2CC(c3ccc(Cl)cc3Cl)Nc3nc(N)nn32)cc1OC (stereo unspecified),i
O=c1cnc2ccccc2n1CC1CCCCC1,0.6
CCOC(=O)c1sc(C)c2c1NC(C)(c1ccccc1)NC2=O (stereo unspecified),2.4
CCCCCCCCCOC(=O)C(CC(=O)O)N1CCOCC1 (stereo unspecified),i
CC(O)(CS(=O)(=O)Cc1ccccc1Cl)C(=O)Nc1cccc(C(F)(F)F)c1 (stereo unspecified),i
Cc1ccc2c(n1)sc1c(N)ncnc12,1.2
O=C(C1CCCN(S(=O)(=O)c2cccc3cccnc23)C1)N1CCc2ccccc21 (stereo unspecified),2.9
CC(=O)c1c(C)[nH]c(C(=O)CSc2nc3ccccc3c(=O)n2CCCN2CCOCC2)c1C,0.7
CC(=O)Oc1ccc(C(C)=O)c2c1OCCO2,1.4
COc1ccc(SCc2noc(C(=O)NC(C)C)c2C(=O)O)cc1,i
COc1cc(OC)cc(-c2nc(-c3cc4cc(C)ccc4nc3OC)no2)c1,i
Cc1cc(C)c2c(N=NN(C)C)[nH]nc2n1,i
CCOc1cc2[nH]c(=O)n(Cc3ccc(C(=O)NCCOC)cc3)c(=O)c2cc1OCC,0.4
C=CCNC(=O)c1ccc(-c2nc(-c3ccc(Cl)cc3Cl)cs2)cc1,i
Cc1ccc(S(=O)(=O)NCC(=O)OCN2C(=O)c3ccccc3C2=O)cc1,0.3
CCn1c(=O)cc(OCC(=O)Nc2ccc(C)cn2)c2ccccc21,1.1
CCN1CCN(c2nc3ccccc3nc2C(C#N)S(=O)(=O)c2ccc(C)cc2)CC1 (stereo unspecified),0.5
CCN(CC)S(=O)(=O)c1ccc(Oc2cccc(C(C)=O)c2)nc1,0.4
# (cont.)
SMILES,H5N1 CPE
Nc1c(C(=O)OC2CCCCC2)c2nc3ccccc3nc2n1CC1CCCO1 (stereo unspecified),i
CC(=O)Oc1cccc(N2C(=O)C3C4C=CC(C4=C(C)C)C3C2=O)c1 (stereo unspecified),i
COc1ccccc1C(=O)NC(CCSC)C(=O)NCC(c1ccco1)N(C)C (stereo unspecified),1.2
CCn1c2ccccc2c2nnc(SCC(=O)NCCOC)nc21,0.9
CN1CCc2nc(SCc3ccc(C(C)(C)C)cc3)c(C#N)cc2C1,i
